# StopGo reporter – FMDV 2A StopGo reporter, luciferase signal; human cells with a luciferase reporter of 2A StopGo recoding; control for the full effect not named in the record; Potency, µM (doses to about 57.9 µM), for inactives: at the top dose signal change, negative = less light; 1.2% of 410,000 active; AID 1159524; active = well fitted falling curve with a large enough effect; inconclusive = small, poorly fitted or top-dose-only effect; inactive = no such curve, though single readings can be large or run the other way; tested in HEK293T cells; also: % is scaled to controls: 0 for no effect and ±100 for the full control effect; nearly all actives have a fitted effect of over 45% in size; luciferase light after 4 h
# RE007 growth inh – less growth of the S. pombe RE007 Vpr strain | S. pombe RE007 Vpr strain, BacTiter-Glo ATP luminescence, 24 h; control for the full effect not named in the record | Potency, µM (highest dose often 92.2 µM), for inactives: top-dose activity change, negative = less growth | 0.21% of 360,000 active; active = well fitted falling curve with a large enough effect; inconclusive = small, poorly fitted or top-dose-only effect; inactive = no such curve, though single readings can be large or run the other way;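 also: % is scaled to controls: 0 for no effect and ±100 for the full control effect; nearly all actives have a fitted effect of over 50% in size; the assay follows cell death caused by Vpr and the record does not say whether a fall means rescue or toxicity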
#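 Fission yeast RE007 carrying one integrated HIV-1 vpr copy, seeded at OD 0.01 in PMG+AL medium with 23 nL pinned compound. Grown 24 h at 30 degrees; viability read by BacTiter-Glo luminescence after 5 min.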
# Cruzain inh Det – cruzain (T. cruzi) inhibition with detergent; P25779; Potency, µM, for the others: max response, negative = inhibition, hits mostly inhibitors; 0.43% of 200,000 active; purified cruzain, Z-FR-AMC fluorescence, 0.01% Triton;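 also: plate controls were neutral wells for no effect and buffer without enzyme for full effect; nearly all actives have a fitted effect of over 40% in size; top concentration of the series not given in the record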
# Target sequence (P25779 123-467 limits assumed): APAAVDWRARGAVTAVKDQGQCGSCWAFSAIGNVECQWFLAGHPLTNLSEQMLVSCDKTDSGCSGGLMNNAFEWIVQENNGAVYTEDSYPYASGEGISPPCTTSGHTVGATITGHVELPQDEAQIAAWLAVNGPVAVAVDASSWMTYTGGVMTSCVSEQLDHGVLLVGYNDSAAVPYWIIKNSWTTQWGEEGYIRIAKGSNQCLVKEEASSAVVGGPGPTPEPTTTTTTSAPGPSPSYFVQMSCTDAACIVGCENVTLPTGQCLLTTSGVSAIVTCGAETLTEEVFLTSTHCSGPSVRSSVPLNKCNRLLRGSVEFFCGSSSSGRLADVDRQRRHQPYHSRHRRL
#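 Z-FR-AMC hydrolysis (2 uM substrate) by cruzain (1.5 nM) monitored kinetically at ex 360/em 450 nm after 15 min room-temperature compound exposure; 0.01% Triton X-100, pH 5.5, 5 mM DTT.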
# Lassa entry inh – Lassa virus entry inhibition. 1.2% of 300,000 active. Lassa virus pseudotype entry inhibition, cell reporter; control for the full effect not named in the record. Potency, µM (doses to about 37.9 µM), for inactives: top-dose activity change, negative = inhibition, most hits filed as inhibitors. AID 540256; active means well fitted inhibition curve with a large enough effect; inconclusive means small, poorly fitted or top-dose-only effect, or effect the other way; inactive means flat fitted curve, though single readings scatter; tested in HEK293 cells; also: % is scaled to controls: 0 for no effect and ±100 for the full control effect; nearly all actives have a fitted effect of over 50% in size; luciferase read-out
# NS1 function inh – influenza NS1 inhibition | S. cerevisiae slowed by influenza A NS1, growth recovery by OD600 | 0.4% of 270,000 active | Potency, µM (top dose mostly 46.1 µM), for inactives: at the top dose activity, positive = more growth; active means well fitted rising curve with a large enough effect; inconclusive means small, poorly fitted or top-dose-only effect; inactive means no such curve, though single readings can be large or run the other way; also: nearly all actives have a fitted effect of over 50% in size
#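 Growth recovery, yeast-based: influenza A NS1 expressed in S. cerevisiae causes slow growth, and suppressors are detected by OD600. The parent strain without NS1 is used as positive control.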
# SARS PLpro yeast – blocks SARS-CoV papain-like protease in a yeast assay | 0.19% of 330,000 active | S. cerevisiae expressing SARS-CoV PLpro, growth rescue; control for the full effect not named in the record | Potency, µM (top dose mostly 32.9 µM), inactives show top-dose activity, positive = growth rescue; active means well fitted rising curve with a large enough effect; inconclusive means small, poorly fitted or top-dose-only effect; inactive means no such curve, though single readings can be large or run the other way; also: 0% is about no effect; nearly all actives have a fitted effect of over 55% in size; growth read by luminescence after 48 h
# Cruzain noTriton – cruzain (T. cruzi) inhibition without detergent; 2.3% of 200,000 active; Potency, µM, for the others: max response, negative = inhibition, hits mostly inhibitors; AID 1476; purified cruzain, Z-FR-AMC fluorescence, no detergent;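 also: plate controls were enzyme without inhibitor for no effect and buffer without enzyme for full effect; nearly all actives have a fitted effect of over 40% in size; top concentration of the series not given in the record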
#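 Purified cruzain at 1.5 nM, pre-incubated 15 min with compound at room temperature in 100 mM sodium acetate pH 5.5, 5 mM DTT, 0.00005% Triton X-100. Reaction started with 2 uM Z-FR-AMC; AMC fluorescence increase over 60 s gives rate.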
# MARV entry inh – inhibitors of Marburg virus binding or cell entry | Marburg virus pseudotyped entry inhibition, cell reporter; control for the full effect not named in the record; about a third of the inactives were read at about 46 µM | 1.8% of 300,000 active | Potency, µM (series often up to 37.8 µM), for the others: top-dose activity change, negative = inhibition, usual class: inhibitors; active = well fitted inhibition curve with a large enough effect; inconclusive = small, poorly fitted or top-dose-only effect, or effect the other way; inactive = flat fitted curve, though single readings scatter; tested in HEK293 cells; about a fifth of its hits are not listed in these tables; also: % is scaled to controls: 0 for no effect and ±100 for the full control effect; luciferase read-out
# * marks the source's active call; other numbers are inactive results; ? = inconclusive; · = not tested or not shown; [ ] = remark or other dose. Unless noted, calls follow the shape of the dose curve; as a rule, active = well fitted curve in the direction sought with a large enough effect; inconclusive = small, poorly fitted or top-dose-only effect, or another doubt; inactive = no such curve, though single readings can be large; an effect the other way counts as inactive or inconclusive. Potency is read from the fitted curve at half-maximal effect.
SMILES,StopGo reporter,RE007 growth inh,Cruzain inh Det,Lassa entry inh,NS1 function inh,SARS PLpro yeast,Cruzain noTriton,MARV entry inh
COc1ccccc1Oc1nc2c(C)cccn2c(=O)c1/C=C(\C#N)c1nc2ccccc2[nH]1,-14.7%,·,0.0%,?,·,·,6.3%,14.1%[46.1 µM]
O=C(COC(=O)C1(c2ccc(Cl)cc2)CCCC1)NCc1ccco1,?,3.7%,·,-13.7%,-4.7%,-5.7%,·,-6.1%[14.2 µM]
CC(=O)C1=C(c2ccccc2)NC(=O)NC1c1ccccc1 (centres undefined),-12.8%,-0.4%,·,·,20.6%,0.3%,·,·
CCc1ccc(-c2cc(C)no2)cc1S(=O)(=O)Nc1ccc(Cl)cc1,46.6%[activator],·,-5.9%,-17.5%[46.1 µM],·,·,-17.7%,·
CN(C)c1ccc(NC(=O)CN2CCC(C(=O)c3ccc(F)cc3)CC2)cc1,-13.3%,9.3%,3.5%,17.5%,-0.1%,2.1%,0.1%,15.0%
O=C(Cc1cccs1)Nc1nnc(SCc2ccc(C(F)(F)F)cc2)s1,0.0%,7.3%,-3.1%,-11.0%,-4.1%,27.1%,?,26.5%
Cc1ccc(S(=O)(=O)c2nc(C)oc2N2CCOCC2)cc1,12.9%,-0.4%,·,-2.9%,-1.7%,0.6%,·,11.5%[46.1 µM]
COc1ccc(CC(=O)N2CCC(CCC(=O)Nc3ccccc3)CC2)cc1,-8.4%,7.8%,·,3.5%,0.5%,3.3%,·,-14.8%
COc1cc(/C=C/C(=O)N(Cc2ccccc2)c2ccccn2)cc(OC)c1OC,-2.5%,3.9%,-9.4%,?,-5.0%,-9.6%,?,-17.1%
Cc1ccc(S(=O)(=O)N2CCN(C(=O)CN3CCc4ccccc4C3)CC2)cc1,?,-0.1%,4.9%,33.0%[14.3 µM],-1.7%,3.5%,0.2%,?
Cc1cccc(-n2c(-c3cccc([N+](=O)[O-])c3)nc3nc4ccccc4nc32)c1,·,·,2.9%,·,6.3%,2.8%,?,·
COc1ccccc1Oc1ccc(S(=O)(=O)N2CCCCC2)cc1NC(=O)CCNC(C)=O,0.2%,2.8%,·,0.3%,-12.4%,0.9%,·,16.5%
CN(C)C(=S)N=c1ssc(=S)n1Cc1ccccc1,-28.5%,-20.6%,·,?,·,·,·,?
CC(C)CN(C(=O)CCCSc1nc2ccccc2[nH]1)c1c(N)n(Cc2ccccc2)c(=O)[nH]c1=O,-8.1%,-5.6%,·,6.2%,·,2.5%,·,-1.7%
CN1CCN(c2nc(-c3ccc(Br)cc3)nnc2-c2ccccc2)CC1,-14.7%,-21.0%,0.8%,12.5%,-6.5%,-0.6%,-3.3%,-8.0%
Cc1ccc(S(=O)(=O)NC(C(=O)N2CCOCCOCCOCC2)C(C)C)cc1 (centres undefined),1.5%,3.9%,·,·,11.3%,1.6%,·,-1.8%[46.1 µM]
O=[N+]([O-])c1c(NCCO)cc(N2CCCCCC2)c2nonc12,-5.2%,-1.2%,·,·,-3.1%,-1.8%,·,·
NS(=O)(=O)c1ccc(CCNC(=O)c2cccc([N+](=O)[O-])c2)cc1,-17.9%,-0.5%,·,1.8%[46.1 µM],-1.3%,1.3%,·,0.9%[46.1 µM]
CC12CN3CC(C)(CN(C1)C3c1ccccc1F)C2 (centres undefined),7.8%,11.2%,·,·,-0.8%,0.8%,·,·
N#Cc1c(F)cccc1N1CCC(C#N)CC1,-22.8%,22.7%,·,0.2%,2.9%,-1.3%,·,-23.6%
CCOc1ccc(NC(=O)Cn2nnc(-c3ccccc3NC(=O)C3CC3)n2)cc1,-7.9%,0.5%,0.8%,-7.0%,-13.0%,-1.6%,-2.9%,-4.8%
O=C(CCCn1c(=O)[nH]c2ccsc2c1=O)NC1CCCCC1,18.3%,11.8%,·,-4.8%[46.1 µM],-18.2%,0.8%,·,?
Cc1c(Cl)cccc1NC(=O)Nc1cc(C(C)(C)C)nn1C,0.0%,7.1%,·,-9.2%[46.1 µM],-4.2%,0.7%,·,-23.8%[46.1 µM]
COc1ccccc1-c1nc(S(=O)(=O)c2ccccc2)c(N2CCOCC2)o1,-6.1%,27.1%,·,4.1%,11.6%,-0.9%,·,?
Cc1cccc(N2CCN(C(=O)C3CCN(S(=O)(=O)c4cccs4)CC3)CC2)c1C,19.7%,·,-2.9%,?,·,·,-10.5%,5.6%[46.1 µM]

# More entries
SMILES,StopGo reporter,RE007 growth inh,Cruzain inh Det,Lassa entry inh,NS1 function inh,SARS PLpro yeast,Cruzain noTriton,MARV entry inh
Cc1ccc(NC(=O)CSc2nnc(Cc3ccccc3)o2)c(C)c1,14.5%,-0.9%,·,16.5%,·,-2.4%,·,7.5%[46.1 µM]
COC(=O)c1nn(-c2ccccc2)nc1-c1nn(-c2ccccc2)nc1C(=O)OC,-15.6%,-2.5%,3.1%,-19.1%,3.7%,3.1%,?,-9.5%
CCCOc1ccccc1C1NC(=O)NC(C)=C1C(=O)OCCOC(C)C (centres undefined),·,3.5%,-0.1%,-2.2%,-0.9%,7.5%,-3.7%,0.1%
CSc1ccc(Cl)c(C(=O)NCCOc2cc(C)ccc2C(C)C)c1,·,0.8%,-2.9%,-8.6%,-28.7%,-5.2%,2.5%,?
Cc1ccc(Cl)cc1NC(=S)N(Cc1ccco1)C(C)c1cccs1 (centres undefined),-24.8%,-4.4%,·,?,·,0.3%,·,?
O=C(CSc1nnc(-c2cccs2)n1Cc1ccccc1)N1CCc2ccccc2C1,0.0%,-18.8%,-3.5%,-1.9%,-279.9%,-39.6%,-2.9%,-25.8%
Cc1cc(C(=O)Nc2nc(C)c(C(=O)N(C)C)s2)ccc1[N+](=O)[O-],-41.0%,23.1%,-4.4%,10µM*,-1.1%,-5.7%,-4.5%,?
Cc1cc(Cl)c2oc(C(=O)NCC(C)(C)N3CCOCC3)c(C)c2c1,-11.2%,-12.5%,·,?,-14.5%,-9.0%,·,12.9%[46.1 µM]
OC(COc1ccc(Cl)cc1)CSc1ccccn1 (centres undefined),79.6%[activator],?,·,·,-3.3%,-4.8%,·,·
CCc1ccc(NC(=O)C(C)OC(=O)c2cccc(S(=O)(=O)N3CCc4ccccc4C3)c2)cc1 (centres undefined),5.1%,-5.1%,-1.8%,-1.0%[46.1 µM],14.1µM*,-11.7%,15.8µM*,?
COC(=O)C(CC(C)C)NC(=O)c1ccc([N+](=O)[O-])cc1 (centres undefined),3.4%,21.3%,2.1%,11.9%,7.9%,-0.5%,-7.3%,-1.4%[46.1 µM]
CN(C)S(=O)(=O)c1ccc(N2CCCC2)c(C(=O)Nc2nc(-c3ccc(F)cc3)cs2)c1,-2.0%,-16.9%,-4.7%,5.1%,8.3%,12.2%,-4.6%,?
COc1ccc(-c2csc(N3CCSCC3)n2)cc1,6.9%,-8.5%,·,?,13.1%,-4.5%,·,?
Cc1ccc2c(=O)cc(C(=O)Nc3c(C(=O)c4ccccc4)oc4ccccc34)oc2c1,0.0%,·,-2.6%,2.9%[46.1 µM],·,·,-2.1%,-1.9%[46.1 µM]
CCC(C(=O)N1CCN(c2cc(Cl)ccc2C)CC1)n1nc(C)n2c(cc3occc32)c1=O (centres undefined),?,·,-5.2%,-21.3%[46.1 µM],·,·,19.9%,?
Cc1ccc2ncnc(Nc3cccc(C(=O)O)c3)c2c1,18.6%,-13.1%,·,-4.2%,·,-2.0%,·,13.3%[46.1 µM]
O=C(O)c1ccc(S(=O)(=O)Nc2ccc(O)c(Sc3nc4ccccc4s3)c2)cc1,-11.3%,8.8%,·,1.2%,1.7%,1.5%,·,-2.2%[46.1 µM]
CC(C)c1ccc(NC(=O)C2CC(=O)N(C3CCCC3)C2)cc1 (centres undefined),0.3%,-4.7%,·,-7.6%[46.1 µM],-15.2%,-3.7%,·,23.6%[46.1 µM]
C/C(=N\O)C1(C)N(O)C(C)(C)C(c2ccc(F)cc2)=[N+]1[O-] (centres undefined),1.8%,-7.5%,2.7%,22.4%,-55.7%,0.8%,6.6%,-1.2%
Cc1cccc(C(=O)OCC(=O)NCCNC(=O)COC(=O)c2cccc(C)c2C)c1C,-14.3%,-12.0%,·,7.2%,12.6%,-0.5%,·,18.8%
O=C(NC1CCCC1)c1ccc2c(c1)N(Cc1c(F)cccc1Cl)C(=O)c1ccccc1S2,-17.2%,·,1.5%,?,·,·,-70.7%,?
COc1ccc(C2CC(c3ccc(OC)cc3)n3nc(NC(=O)c4ccco4)nc3N2)cc1 (centres undefined),-29.2%,1.6%,0.9%,-8.0%,-33.0%,-2.6%,8.8%,-22.9%[46.1 µM]
Cc1csc(N2CCN(c3cc4nc(-c5ccncc5)[nH]c4cc3Cl)CC2)n1,?,-25.8%,·,·,2.3%,-0.9%,·,·
O=C(O)c1cccc(C(=O)c2cccc3ccccc23)c1,0.0%,-3.9%,·,?,·,·,·,11.0%[46.1 µM]
O=C(Nc1ccccc1C(=O)OC1CCOC1=O)c1ccco1 (centres undefined),-6.9%,-14.9%,-1.3%,8.0%,-5.8%,-4.0%,5.9%,-19.4%
COc1ccc(C2c3cccn3CCN2S(=O)(=O)c2ccccc2[N+](=O)[O-])cc1OC (centres undefined),-4.0%,·,1.0%,?,·,·,1.4%,·
C=COCCNC(=O)Nc1ccc(Cl)cc1Cl,-6.7%,8.4%,6.2%,-15.6%,-7.3%,-1.7%,-6.7%,12.3%
CCOc1ccc(OCCOCCN2CCc3ccccc3C2)cc1,-9.2%,-3.2%[3.69 µM],7.1%,-3.6%,-3.9%,4.1%,2.1%,-37.4%
CC1=C(C)CC(C(=O)Nc2nc(-c3ccc(C)cc3C)c(C)s2)C(C(=O)O)C1 (centres undefined),?,5.0%,-6.1%,-8.6%,26.1%,-0.7%,-3.7%,?
CCc1ccc(NC(=O)CCC(=O)c2ccc(C)cc2)cc1,5.5%,1.5%,·,28.4%[46.1 µM],3.9%,0.3%,·,5.3%[46.1 µM]

# High-throughput results deposited in PubChem BioAssay by National Center for Advancing Translational Sciences (NCATS).
